# Screening data (PubChem BioAssay)
# NPYLR7 ag = activates Aedes aegypti NPYLR7 receptor. HEK293T NPYLR7/Galpha15, GCaMP6s calcium fluorescence. 270,000 tested, 0.15% active. activation, % at 10 µM; in the data active means activation above about 40%;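 further: 0% = vehicle and 100% = reference agonist at the receptor; some compounds past the cut are filed as inactive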
# NPYLR7 ag max-min = further read-out of NPYLR7 ag, marked with its call; activation, %; measured here: Max-Min RFU normalised activation; some inactives read as strong as hits;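 span of the calcium signal over five minutes; 0% = vehicle and 100% = native peptide agonist; compound fluorescence can raise it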
# Active calls of the source: *; & = joins results of further samples.
SMILES,NPYLR7 ag,NPYLR7 ag max-min
CC1CCC(NC(=O)c2ccc(CSc3nnc4ccccn34)cc2)CC1 (configuration not stated),-6,-12
CCOc1ccc(N2CCn3c2nc2c3c(=O)n(CC(=O)OC)c(=O)n2C)cc1,-3,-4
CN(CCc1ccccc1)Cc1cc(C(=O)N2CCN3CCCC3C2)no1 (configuration not stated),-7,-17
Cc1noc(COc2ccccc2OCC(=O)NC(C)(C)C)n1,-8,-9
COc1ccc(-n2cccn2)c(CN2CCCN(C)C3(CCN(C)CC3)C2)c1,-4,-9
Cc1oc(CC(C)C)cc1C(=O)NCCNC(=O)c1cc(CC(C)C)oc1C,0,-5
O=C(Nc1cccc(Cc2ccccc2)c1)Nc1nc([C@@H]2O[C@H](CO)[C@@H](O)[C@H]2O)cs1,1,23
COCCC(=O)NC1CCCc2nc(N(C)C)ncc21 (configuration not stated),3,-1
Cc1nnc(SCCn2c(Br)nc3c2c(=O)[nH]c(=O)n3C)s1,6,0
c1ccc(-n2ncc3c(N4CCN(C5c6ccccc6-c6ccccc65)CC4)ncnc32)cc1,12,8
O=C(NCc1ccccc1-n1ccnc1)c1cn(Cc2cccc(Cl)c2)nn1,0,-3
COc1ccc(-c2ccncc2C)c(OC)c1,13,9
COc1ccc(OC)c(C2CCN(Cc3ncccc3C(=O)O)C2)c1 (configuration not stated),19,10
COc1ccc(OCc2nc(C(=O)N3CC=CC3C(C)C)co2)cc1 (configuration not stated),1,-1
CCc1nc(CNC(=O)C(c2cccc(C)c2)N(C)C)cs1 (configuration not stated),1,-1
CN(C)c1ccc(CNC(=O)C2CCCCC2)cn1,-2,-2
CCc1ccc(Nc2nnc(SCC(=O)NC(=O)NC)s2)cc1,9,11
COc1ccc(-n2c(CN3CCC(C#N)CC3)nc3ccccc32)cc1,6,5
CCOC(=O)c1nn(-c2ccccc2)c(=O)cc1N1CCC(Cc2ccccc2)CC1,8,2
O=C(CNC(=S)NC(=O)c1ccco1)c1ccccc1,9,9
COc1ccc(OC)c(NC(=O)c2cc(=O)c(OC)cn2C)c1,-1,-3
Cn1ccc2c(-c3cncc(C(=O)N4CCOCC4)n3)ccnc21,14,-4
COc1ccc(-n2ncc(Oc3cccc(C(C)C)c3)c(Nc3ccc(C(=O)N4CCCC4)cc3)c2=O)cc1,12,11
Oc1oc(-c2ccccc2F)nc1C=Nc1ccccc1I,-2,-9
CC(Cn1cncn1)NC(=O)NCc1ccccc1OC(C)(C)C (configuration not stated),6,5
CC1=CC2=C(C(=O)OC2O)C(O)C2CC(C)(C)CC12 (configuration not stated),-7,-17
COCCN(Cc1ccc(C)cc1)C(=O)C1CCN(c2ncccn2)CC1,17,4
O=C(Cn1nnnc1CN1CCOCC1)N1CCCN(Cc2ccccc2F)CC1,-4,-6
CCCCS(=O)(=O)N1CCC2(CC1)[C@H](C(=O)N(C)c1ccccc1)[C@@H](OC)C(=O)N2C,23,31
CC1CCN(C2CC(=O)N(c3ccc(OC(F)(F)F)cc3)C2=O)CC1 (configuration not stated),9,11

# Whole records from above:
# Record of `CC1CCN(C2CC(=O)N(c3ccc(OC(F)(F)F)cc3)C2=O)CC1` (configuration not stated) : NPYLR7 ag: 9; NPYLR7 ag max-min: 11
# Record of `O=C(Cn1nnnc1CN1CCOCC1)N1CCCN(Cc2ccccc2F)CC1` : NPYLR7 ag: -4; NPYLR7 ag max-min: -6

# Four entries from above, with two lines to a compound:
# Results follow in this order: NPYLR7 ag	NPYLR7 ag max-min
> Cn1ccc2c(-c3cncc(C(=O)N4CCOCC4)n3)ccnc21
  14	-4
> COc1ccc(-n2ncc(Oc3cccc(C(C)C)c3)c(Nc3ccc(C(=O)N4CCCC4)cc3)c2=O)cc1
  12	11
> Oc1oc(-c2ccccc2F)nc1C=Nc1ccccc1I
  -2	-9
> CC(Cn1cncn1)NC(=O)NCc1ccccc1OC(C)(C)C (configuration not stated)
  6	5

# Continuation.
SMILES,NPYLR7 ag,NPYLR7 ag max-min
CC(C)(C)OC(=O)NCC1CCN(CC(=O)NCc2ccccc2)C1 (configuration not stated),0,16
CC(=O)c1ccccc1-c1ccncc1C,22,12
CN(Cc1ccc(F)cc1)C(=O)CC1C(=O)NCCN1Cc1ccccc1C(F)(F)F (configuration not stated),3,0
Cc1nc2c(=O)n(-c3ccccc3)c(=O)n(-c3ccccc3)c2n(C)c1=O,4,9
O=C(CN(CCN1CCOCC1)S(=O)(=O)c1cc(Cl)ccc1Cl)N(Cc1ccc(F)cc1)Cc1ccco1,6,15
NC(=O)C1CCCN(c2nc(-c3ccccc3)nc3c2CCNC3)C1 (configuration not stated),28,11
O=C1C(C(c2ccco2)N2CCC3(CC2)OCCO3)Sc2nc(-c3ccco3)nn21 (configuration not stated),10,11
O=S(=O)(c1ccc(Cl)cc1)c1ccc2ccccc2c1,3,0
COCCN(CC(=O)N(CCc1c[nH]c2ccccc12)Cc1ccccc1OC)C(=O)Nc1ccc(F)c(Cl)c1,16,9
CC(C)CN1CCCC(C(=O)NC2CCN(C(=O)c3ccoc3)CC2)C1 (configuration not stated),12,5
N#Cc1c(F)cccc1NCc1csc(C2CC2)n1,-6,-8
Cc1cc(Cl)ccc1OC(C)c1nnc(SCCC2CCCCC2)o1 (configuration not stated),-6,-14
O=C(O)CNC(=O)c1ccco1,6,7
CCCCn1cc(-c2cc(C(=O)N3CCCC3C)c3cccc(C)c3n2)cn1 (configuration not stated),2,1
CCOC(=O)C1(C(F)(F)F)NN(c2ccccn2)C(=N)C1C#N (configuration not stated),1,39
COCc1ccccc1C(=O)N(C)C1CCc2ccccc2C1 (configuration not stated),-12,-12
CCN1CCN(C(c2cccc(Cl)c2)c2c(O)cc(C)n(Cc3ccc(OC)cc3)c2=O)CC1 (configuration not stated),5,-2
Cc1cnc(COc2ccc(N(C)C(=O)OC(C)(C)C)cc2)o1,9,9
C=CCOc1ccccc1CNC(=O)NC(C)c1cn(C)nc1C (configuration not stated),8,6
CN1C(=O)CC(CC(=O)N2CCC(c3ccccc3Cl)C2)(c2ccc(-c3ccccc3)cc2)C1=O (configuration not stated),4,0
CCc1nnc(CN(C)c2nccc(CCC(F)(F)F)n2)o1,10,9
COc1ccc(-c2ccnc(SCc3csc(Cc4ccc(C)cc4)n3)n2)cc1,13,14
CCc1nc(C)c(C(C)N(C)S(=O)(=O)c2cccc(C#N)c2)s1 (configuration not stated),0,-1
O=c1[nH]cc(S(=O)(=O)NC2CCCC2)c(=O)[nH]1,-14,-19
O=C(Nc1ccc(Cl)c(Cl)c1)N1CCCN(c2nc(Cc3ccccc3)ns2)CC1,-1,1
Cn1nc(C(=O)NCc2cccs2)c2c1CCC(NCC(C)(C)N1CCOCC1)C2 (configuration not stated),17,0
Cc1cc(Cl)c2oc(C(=O)N3CCNC(=O)C3c3cccc(F)c3)c(C)c2c1 (configuration not stated),5,4
CCN1CCN(c2oc(-c3ccc(COc4ccccc4)o3)nc2C#N)CC1,0,26
CC1CCN(S(=O)(=O)c2ccc(NCCC(=O)N3CCOCC3)c([N+](=O)[O-])c2)CC1,-2,29
O=C(O)c1coc(CN(CCc2c[nH]c3ccccc23)Cc2cccc(C(F)(F)F)c2)n1,10,14
COc1cc(CNC(=O)c2cc(C)ccc2F)ccc1OCC(N)=O,10,6
CCOC(=O)c1[nH]c2ccccc2c1NC(=O)C(C)(C)C,0,12
O=C(c1c[nH]cc1-c1ccc(Cl)s1)N1CCSCC1,-25,-23
O=[N+]([O-])c1cc(S(=O)(=O)C(F)(F)F)ccc1NC1CCS(=O)(=O)C1 (configuration not stated),2,1
CC(C)c1cc(C(C)C)n(C2CCN(C(=O)Cc3c[nH]c4ccccc34)CC2)n1,5,9
COc1cc(-c2cc(C(F)(F)F)n3ncc(C(=O)N4CCCCCC4)c3n2)cc(OC)c1OC,9,9
Cc1ccc(Cl)cc1-n1nnc(C(=O)Nc2cccc(F)c2)c1C,-2,-1
c1ccc2c(c1)nc1n2CN(C2CCCCCC2)CN1,9,1
CCCCC(NC(=O)CCc1cc2c(n1-c1ccc(C(C)C)cc1)-c1ccccc1OC2)C(=O)OC (configuration not stated),2,0
CCOC(=O)CCC(=O)N(CC(=O)N1c2ccccc2-n2cccc2C1c1ccc(OC)cc1)C(C)C (configuration not stated),-8,0

# Fetched one by one from the list above, five records:
SMILES,NPYLR7 ag,NPYLR7 ag max-min
O=[N+]([O-])c1cc(S(=O)(=O)C(F)(F)F)ccc1NC1CCS(=O)(=O)C1 (configuration not stated),2,1
O=C(c1c[nH]cc1-c1ccc(Cl)s1)N1CCSCC1,-25,-23
c1ccc2c(c1)nc1n2CN(C2CCCCCC2)CN1,9,1
Cc1ccc(Cl)cc1-n1nnc(C(=O)Nc2cccc(F)c2)c1C,-2,-1
CCOC(=O)CCC(=O)N(CC(=O)N1c2ccccc2-n2cccc2C1c1ccc(OC)cc1)C(C)C (configuration not stated),-8,0

# Next part
SMILES,NPYLR7 ag,NPYLR7 ag max-min
COc1ccc2oc(=O)c(-c3nnc(Nc4ccc(Cl)cc4Cl)s3)cc2c1,-9,-14
CC(NC(=O)Nc1ccc(Cl)cc1)c1nc2cc(Cl)ccc2c(=O)n1C (configuration not stated),-4,6
CCN(CC)c1nc(C)nc2sc3c(c12)CCC(C)C3 (configuration not stated),2,12
CCCn1c(=O)c(C(=O)O)nn(-c2ccc(OC)cc2)c1=O,10,9
Cc1cc(C)n2c(SCC#N)nnc2n1,1,7
CCOC(=O)C1(Cc2ccccc2C(F)(F)F)CCN(C(=O)C2CC=CCC2)CC1 (configuration not stated),5&1,4&9
COC(=O)C1=C(C)NC(=O)NC1c1ccc(O)c(OC)c1 (configuration not stated),9,5
CCCC(=O)N1CCC1(C)C(=O)Nc1ccc(C)c(C)c1 (configuration not stated),0,-1
COc1ccccc1-n1ccn2c(=O)n(Cc3ccccc3Cl)nc2c1=O,-21,-25
Cc1c(C(=O)N2Cc3cnc(C(C)(C)C)nc3C2)sc2ccccc12,15,5
O=C(NCc1ccc2nonc2c1)c1cccc2c1OCC2,4,4
CC1CCCCN1C(=O)c1cnn2c(C(F)(F)F)cc(-c3ccc(Br)cc3)nc12 (configuration not stated),9,14
CC(C)N(Cc1ccccc1)C(=O)Nc1cccc(I)c1,1,1
COC[C@H]1C[C@H]2C[C@H](O)[C@@H](N3CCN(Cc4ccccc4)CC3)[C@@]2(O)CO1,1,6
CCOn1c(=O)c(-c2cccs2)[n+]([O-])c2ccccc21,0,-8
Cc1cccnc1CN(C)C(=O)c1cccc(-c2ccco2)c1,-2,-1
CCCCCCn1c(=O)c2c(nc3n(C(C)C)c(C)cn23)n(C)c1=O,-1,24
Cn1ccnc1C(NS(=O)(=O)c1ccc2ccccc2c1)c1cccc(F)c1 (configuration not stated),1,7
O=C(N=Nc1c(O)[nH]c2ccccc12)c1ccccc1[N+](=O)[O-],1,3
C=c1ccccc1=C1NN=C(NC(=O)c2c(-c3ccccc3Cl)noc2C)S1,4,4
COc1ccc(C(=O)NCC2c3cc(OC)c(OC)cc3CCN2C(=O)Nc2ccccc2OC)cc1 (configuration not stated),10,4
COc1ccc(C2CCCN2C(=O)C=Cc2cccc(Br)c2)c(OC)c1 (configuration not stated),-1,-1
Cc1ccc(-n2c(CNC(=O)Nc3ccc(F)c(Cl)c3)nnc2SCc2ccccc2C)cc1,15,21
CC1CCN(C(=O)c2csc(COc3ccc(F)cc3)n2)CC1,14,9
CN1C(=O)NC(c2cccc(Oc3ccccc3)c2)C2=C1CN(C(Cc1ccccc1)C(=O)NCCOc1ccccc1)C2=O (configuration not stated),1,9
COc1ccccc1NC(=O)C(C)Sc1nnc2nc(C)cc(C)n12 (configuration not stated),0,-2
CC(=O)c1c(C)[nH]c(C(=O)CSc2nnc(CN3CCCC3)o2)c1C,1,-2
O=C(CSc1ncnc2c1oc1ccccc12)Nc1ccc(F)cc1,6,2
CCc1noc(CSC(C)c2cccs2)n1 (configuration not stated),4,4
CN1CC[C@H](NCc2ccccc2)C[C@H](O)C1,3,13
N#CC1(c2ccccc2)CCC(=O)N1CCO (configuration not stated),-2,-3
COc1cc(CN(CC(O)COCC(C)C)C(C)C)cc(OC)c1 (configuration not stated),38,39
COc1ccc(OC)c2sc(N(CCCN(C)C)C(=O)c3cc(C)n(C)n3)nc12,8,5
CC(C)(C)CN1CC(NC(=O)NC2CCCCC2)CC1=O (configuration not stated),-2,-8
O=S(=O)(Nc1ccccn1)c1ccc(F)cc1,0&0,2&-3
COc1cc(OC)cc(C(=O)OCC(=O)Nc2nc(C)cs2)c1,1,9
COc1coc(CN2CCCC3(C2)CN(C)C(=O)O3)cc1=O (configuration not stated),5,18
COC(=O)CCC(=O)c1ccc(Br)s1,-3,-3
CC(C)[C@H](CO)Nc1nccnc1-c1ccccc1,5,2
O=C(Nc1ccc(N2CCCN(C(=O)C3CC3)CC2)cc1)c1ccc(Cn2ccnc2)cc1,3,-1
COc1ccc(Cc2noc(-c3ccc(NCc4cccc(C)n4)nc3)n2)cc1,4,0
CC(C)CN1CC(C(=O)N2CCC(CO)(Cc3ccccc3)CC2)CC1=O (configuration not stated),-17,-16
CN(CC(=O)N1CCCC1)S(=O)(=O)c1cc(Cl)ccc1Cl,3,-1
CCOC(=O)N1CCC(Nc2nccc(CCC(F)(F)F)n2)CC1,-8,-9
O=C1NC(=S)N/C1=C\c1cc2c(cc1Br)OCO2,3,1
CCOC(=O)c1c(N)sc(C(=O)Nc2cc(C)cc(C)c2)c1C,-5,-9
Cc1cccc(CN2CCCC3(CCN(C(=O)CCOc4ccccc4)C3)C2)c1 (configuration not stated),14,6
Cc1ccc(-n2c(C3CCCCC3)n[nH]c2=S)cc1,-6,1
CCOC(=O)C1=C(C)NC(=S)NC1c1cc(OC)c(O)c(OC)c1 (configuration not stated),7,9
COc1ccc(Br)cc1/C=C/C(=O)N1CCC[C@H]1C(=O)OCCc1ccc(OC)c(OC)c1,-9,-12

# These rows are one share of the data; count on the stated rates, not on these rows.
